Screens (PubChem BioAssay)
HIV Env fusion = HIV envelope-mediated fusion inhibition; HeLa-JRFL Env/CEM21 cell fusion, luciferase; inhibition, % at 12.3 µM; hit rate 1.1% among 360,000; AID 651610;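 active = mean replicate inhibition score of at least 50 and every replicate individually at or above 50; inconclusive = only one of the two criteria met; inactive = mean below 50 and not all replicates reaching 50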;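 also: 0% = plate neutral controls and 100% = maraviroc near 300 nM; one replicate is shown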
Starred values were filed as active, the others as inactive; ? = inconclusive; [ ] = dose if it differs, or a comment. This is a subset. The share of hits here may be higher or lower than overall.

HIV Env fusion | Molecule
0[16.7 µM] | COc1cccc(CNC(=O)C[C@@H]2CC[C@@H]3[C@@H](COc4ccc(NC(=O)c5cccs5)cc4C(=O)N3C)O2)c1
-6 | COC(=O)[C@]12C[C@H](CC(=O)NCCC(C)C)C(=O)N(Cc3ccccc3)C1=C[C@H](C(C)(C)C)O[C@@H]2C
28[16.7 µM] | O=C(Nc1ccc2c(c1)[C@@H]1C[C@@H](CC(=O)N3CCc4ccccc4C3)O[C@H](CO)[C@@H]1O2)c1ccc2c(c1)OCO2
4[16.7 µM] | C[C@@H]1CN([C@H](C)CO)C(=O)c2cc(N(C)C)ccc2O[C@@H](C)CCCCO[C@H]1CN(C)S(=O)(=O)c1ccc(Cl)cc1
9[16.7 µM] | CN1C(=O)c2cc(NC(=O)c3ccc(F)c(F)c3)ccc2OC[C@H]2O[C@@H](CC(=O)N[C@@H]3CCN(Cc4ccccc4)C3)CC[C@@H]21
12 | CC(=O)C1=C(C)N(Cc2ccc(F)cc2)C(=S)NC1c1cccc(Cl)c1 (stereo not drawn)
33[16.7 µM] | O=C(C[C@@H]1C=C[C@H](NC(=O)Nc2cccc(F)c2)[C@H](CO)O1)NCC1CCCCC1
? | CCCCc1c(-c2ccccc2OC)ncn1Cc1cccc(C)c1
-13[16.7 µM] | Cc1ccc(S(=O)(=O)N(C)C[C@@H]2Oc3ccc(NS(=O)(=O)c4cn(C)cn4)cc3CC(=O)N([C@H](C)CO)C[C@@H]2C)cc1
-6[16.7 µM] | C[C@H]1CN([C@@H](C)CO)C(=O)CCCn2nncc2CO[C@@H]1CN(C)C(=O)Nc1ccc2c(c1)OCCO2
3 | COC(=O)c1cc2c(c3c4cc(F)ccc4n(S(=O)(=O)c4ccccc4)c13)C(=O)N(C)C2
-22[16.7 µM] | CCCNC(=O)N[C@@H]1CC[C@@H](CCn2cc(-c3cccc(F)c3)nn2)O[C@H]1CO

Nothing new here: entries from further up.
HIV Env fusion | Molecule
-6[16.7 µM] | C[C@H]1CN([C@@H](C)CO)C(=O)CCCn2nncc2CO[C@@H]1CN(C)C(=O)Nc1ccc2c(c1)OCCO2
3 | COC(=O)c1cc2c(c3c4cc(F)ccc4n(S(=O)(=O)c4ccccc4)c13)C(=O)N(C)C2
-22[16.7 µM] | CCCNC(=O)N[C@@H]1CC[C@@H](CCn2cc(-c3cccc(F)c3)nn2)O[C@H]1CO

Later entries.
HIV Env fusion | Molecule
13[16.7 µM] | CC(C)NC(=O)Nc1ccc2c(c1)C(=O)N([C@@H](C)CO)C[C@@H](C)[C@@H](CN(C)Cc1ccncc1)OCCCC[C@@H](C)O2
-1[16.7 µM] | COc1ccc(-c2cn(CC[C@H]3CC[C@@H](NC(=O)CCN4CCCCC4)[C@@H](CO)O3)nn2)cc1
-5[16.7 µM] | CO[C@@H]1CN(C)C(=O)c2cc(NC(=O)Nc3ccccc3F)ccc2OC[C@@H](C)N(C(C)=O)C[C@H]1C
0 | CN(c1cccnc1)c1ccc(NC(=O)Cc2cn(Cc3ccccc3)c3ccccc23)cc1Br
-12[16.7 µM] | COC(=O)C[C@@H]1C[C@H]2c3cc(NC(=O)C4CCOCC4)ccc3O[C@H]2[C@@H](CO)O1
5[16.7 µM] | Cc1cccc(S(=O)(=O)N2[C@@H]3c4cccc(=O)n4C[C@H]2[C@H](CO)[C@H]3C(=O)N(C)C)c1
28[16.7 µM] | C[C@H](CO)N1C[C@H](C)[C@@H](CN(C)Cc2cccc(C(F)(F)F)c2)OCc2cn(nn2)CCCC1=O
18[16.7 µM] | COC(=O)[C@H](Cc1ccccc1)N1C(=O)O[C@@H](Cc2ccccc2)[C@H]1/C=C/C1CC1
18[16.7 µM] | O=C(NC1CCCC1)N1CC(=O)N2[C@H](C1)[C@H](c1ccc(-c3cccc(F)c3)cc1)[C@@H]2CO
-9[16.7 µM] | COc1cccc(S(=O)(=O)Nc2ccc3c(c2)OC[C@@H](C)N(Cc2ccccc2F)C[C@@H](C)[C@@H](OC)CN(C)C3=O)c1
-47[16.7 µM] | CC(C)NC(=O)Nc1ccc2c(c1)C(=O)N([C@@H](C)CO)C[C@H](C)[C@@H](CN(C)CC1CCCCC1)OCCCC[C@@H](C)O2
-3[16.7 µM] | Cc1ccc(S(=O)(=O)N(C)C[C@@H]2Oc3ccc(NS(=O)(=O)c4cn(C)cn4)cc3C(=O)N([C@@H](C)CO)C[C@@H]2C)cc1

Further records:
HIV Env fusion | Molecule
24[16.7 µM] | COc1ccc(CN2C[C@H](O)COC[C@H]3O[C@H](CC(=O)N(C)C)CC[C@@H]32)cc1
? | COC(=O)c1cc2c(c3c4cc(OC)ccc4n(S(=O)(=O)c4cccc(C)c4)c13)C(=O)N(C)C2
55* | COC(=O)C1=C(C)N(C)C(=NCc2ccc(OC)cc2)NC1c1ccc(C(F)(F)F)cc1 (stereo not drawn)
-14[16.7 µM] | CO[C@@H]1CN(C)C(=O)c2ccc(NS(C)(=O)=O)cc2OC[C@@H](C)N(Cc2ccccn2)C[C@@H]1C
? | C[C@H](c1ccccc1)N1C[C@@H](COCc2ccccc2)Oc2cccc(Oc3ccc(F)cc3)c2S1(=O)=O
2[16.7 µM] | O=C(C[C@H]1CC[C@H]2[C@@H](COC[C@H](O)CN2Cc2cccc(C(F)(F)F)c2)O1)NCCc1ccncc1
2[16.7 µM] | Cc1ccc(S(=O)(=O)Nc2ccc3c(c2)C(=O)N([C@@H](C)CO)C[C@@H](C)[C@@H](CN(C)Cc2ccc(Oc4ccccc4)cc2)O3)cc1
-3[16.7 µM] | CC(=O)[C@]12O[C@@]3(COC[C@H](c4ccccc4)N3C1=O)[C@H]1C(=O)N(c3ccccc3)C(=O)[C@H]12
21[16.7 µM] | COc1cccc(-c2ccccc2[C@@H]2[C@@H](CO)N(C(=O)Cc3ccccc3)[C@H]2C#N)c1
-5[16.7 µM] | O=C(Nc1cc(F)ccc1F)N[C@@H]1CC[C@@H](CC(=O)N2CCc3ccccc3C2)O[C@@H]1CO
-1 | Nc1[nH]c(C(=O)c2ccc(Cl)cc2)c(-c2ccc(Br)cc2)c1C(=O)NCCc1c[nH]c2ccccc12
2[16.7 µM] | Cc1ccc(S(=O)(=O)NCC[C@H]2CC[C@H](NC(=O)CC3CC3)[C@H](CO)O2)cc1

Going on with the list:
HIV Env fusion | Molecule
-11[16.7 µM] | COCC(=O)N[C@@H]1C=C[C@H](CC(=O)NCc2ccc(Cl)cc2)O[C@H]1CO
-1[16.7 µM] | CN1CCN(C(=O)C[C@H]2C[C@H]3c4cc(NC(=O)Cc5ccncc5)ccc4O[C@H]3[C@H](CO)O2)CC1
-4[16.7 µM] | C[C@@H]1CN([C@@H](C)CO)C(=O)Cc2cc(NC(=O)Cc3ccccc3)ccc2O[C@@H]1CN(C)Cc1ccc(C(F)(F)F)cc1
-15 | COc1ccc(CNS(=O)(=O)c2cc(Br)ccc2Br)c(OC)c1
8[16.7 µM] | COc1ccccc1NC(=O)N(C)C[C@H]1OCc2ccccc2-c2ccccc2C(=O)N([C@@H](C)CO)C[C@@H]1C
-6[16.7 µM] | CC=Cc1ccc2n(c1=O)C[C@H]1[C@H](CO)[C@@H](C(=O)NCC3CC3)N(Cc3nccs3)[C@@H]21 (mixture of isomers)
55*[16.7 µM] | COc1cccc(S(=O)(=O)N(C)C[C@@H]2Oc3cc(C4=CCCCC4)ccc3S(=O)(=O)N([C@@H](C)CO)C[C@@H]2C)c1
59* | COC(=O)[C@]12C[C@H](CC(=O)NCc3cccc(C(F)(F)F)c3)C(=O)N(Cc3ccc4c(c3)OCO4)C1=C[C@H](C(C)(C)C)O[C@@H]2C
-1[16.7 µM] | O=C(C[C@H]1CC[C@@H]2[C@H](COC[C@H](O)CN2Cc2cc(F)ccc2F)O1)NCc1ccc(Cl)cc1
-20 | C[C@H](O)[C@@H]1C(=O)N2CCc3c([nH]c4c(-c5ccccc5)cccc34)[C@@H]2C[C@@H]1N(C)CC1CCCCC1
-4[16.7 µM] | CC(C)(C)[S@](=O)N1Cc2cc(C(=O)N3CCCCC3)nc(-c3cccc(-c4ccc(F)cc4)c3)c2[C@@H]1CCO
-29[16.7 µM] | O=C(C[C@@H]1CC[C@@H]2[C@H](COC[C@H](O)CN2C(=O)Nc2ccc(Cl)cc2)O1)NCCc1ccncc1

Exported with each value named: part of the list above.
O=C(C[C@@H]1CC[C@@H]2[C@H](COC[C@H](O)CN2C(=O)Nc2ccc(Cl)cc2)O1)NCCc1ccncc1
  HIV Env fusion: -29[16.7 µM]
O=C(C[C@H]1CC[C@@H]2[C@H](COC[C@H](O)CN2Cc2cc(F)ccc2F)O1)NCc1ccc(Cl)cc1
  HIV Env fusion: -1[16.7 µM]

Next part.
HIV Env fusion | Molecule
7[16.7 µM] | CNC[C@H]1Oc2cc(C#Cc3ccccc3F)ccc2S(=O)(=O)N([C@@H](C)CO)C[C@@H]1C
-10[16.7 µM] | CNC[C@H]1OCCCC[C@H](C)Oc2ccc(NC(=O)Nc3c(C)noc3C)cc2C(=O)N([C@@H](C)CO)C[C@H]1C
8[16.7 µM] | COc1ccc(C(=O)Nc2ccc3c(c2)C(=O)N(C)[C@@H]2CC[C@H](CC(=O)NCC4CC4)O[C@@H]2CO3)cc1
-43[16.7 µM] | COc1ccccc1C#Cc1ccc2c(c1)[C@H]1NCC[C@H]1[C@@H](CO)N2
5[16.7 µM] | C[C@H]1CN([C@@H](C)CO)C(=O)c2cccc(NC(=O)CCCCCC(=O)Nc3ccccc3N)c2O[C@@H]1CN(C)S(=O)(=O)c1ccc(Cl)cc1
3[16.7 µM] | C[C@H](CO)N1C[C@H](C)[C@@H](CN(C)C(=O)Nc2ccc(F)cc2)Oc2ccc(NS(=O)(=O)c3ccccc3)cc2C1=O
-11[16.7 µM] | C[C@H](NC(=O)C[C@H]1C[C@@H]2c3cc(N(C)C)ccc3O[C@@H]2[C@H](CO)O1)c1ccccc1
7[16.7 µM] | CCC(=O)N(C)C[C@H]1Oc2cc(C3=CCCCC3)ccc2S(=O)(=O)N([C@H](C)CO)C[C@H]1C
7[16.7 µM] | C[C@@H]1CN([C@@H](C)CO)S(=O)(=O)c2ccc(C3=CCCC3)cc2O[C@@H]1CN(C)C(=O)C1CC1
-15[16.7 µM] | C[C@@H]1CCCCO[C@H](CN(C)C(=O)c2ccncc2)[C@@H](C)CN([C@@H](C)CO)C(=O)c2cc(NC(=O)c3ccccc3)ccc2O1
-31[16.7 µM] | CC(C)NC(=O)N(C)C[C@@H]1OCCCC[C@H](C)Oc2ccc(NC(=O)CCC(F)(F)F)cc2C(=O)N([C@@H](C)CO)C[C@H]1C
24[16.7 µM] | O=C(C[C@H]1CC[C@H]2[C@@H](COC[C@@H](O)CN2C(=O)c2ccc(F)cc2)O1)Nc1ccc(-c2ccccc2)cc1

(continued)
HIV Env fusion | Molecule
6[16.7 µM] | CC(C)NC(=O)Nc1ccc2c(c1)C(=O)N([C@@H](C)CO)C[C@@H](C)[C@@H](CN(C)C)OCCCC[C@H](C)O2
-6[16.7 µM] | CO[C@@H]1CN(C)C(=O)c2ccc(NC(=O)Nc3cccc(F)c3)cc2OC[C@H](C)NC[C@@H]1C
-19[16.7 µM] | CCCNC(=O)Nc1ccc2c(c1)C(=O)N(C)C[C@H](OC)[C@H](C)CN(Cc1ccccn1)[C@H](C)CO2
-4[16.7 µM] | COc1ccc(NC(=O)Nc2ccc3c(c2)[C@H]2C[C@@H](CC(=O)NCCc4ccccc4)O[C@@H](CO)[C@H]2O3)cc1
-64[16.7 µM] | CO[C@H]1CC[C@H]2CCOc3c(C#N)cccc3C(=O)N(C)C[C@@H](C)C(=O)N(C)C[C@H]1O2
-3[16.7 µM] | COCCNC(=O)[C@@H]1[C@@H](CO)[C@@H]2Cn3c(ccc(-c4ccccc4F)c3=O)[C@@H]2N1C(=O)C1CCCC1
15[16.7 µM] | CC(=O)N1[C@H](C(=O)NCc2ccccc2F)[C@@H](CO)[C@@H]2Cn3c(cccc3=O)[C@@H]21
-9[16.7 µM] | C[C@@H]1CN([C@H](C)CO)C(=O)CCCn2cc(nn2)CO[C@@H]1CN(C)Cc1ccncc1
5[16.7 µM] | C[C@@H]1CCCCO[C@@H](CN(C)Cc2ccncc2)[C@H](C)CN([C@@H](C)CO)C(=O)c2cc(NC(=O)c3ccncc3)ccc2O1
10[16.7 µM] | O=C(C[C@H]1C=C[C@@H](NC(=O)Nc2cccc(F)c2)[C@@H](CO)O1)NCC1CCCCC1
8[16.7 µM] | COc1ccc(NC(=O)Nc2ccc3c(c2)[C@@H]2C[C@@H](CC(=O)NC4CCCCC4)O[C@@H](CO)[C@@H]2O3)cc1
1[16.7 µM] | Cc1noc(C)c1S(=O)(=O)Nc1ccc2c(c1)CC(=O)N([C@@H](C)CO)C[C@@H](C)[C@@H](CN(C)Cc1ccc(-c3ccccc3)cc1)O2

Next section:
HIV Env fusion | Molecule
3[16.7 µM] | C[C@H]1CN([C@@H](C)CO)C(=O)c2ccccc2-c2ccccc2CO[C@H]1CN(C)Cc1cccc(O)c1
-21 | COC(=O)[C@]12C[C@H](CC(=O)N3CCOCC3)C(=O)N(Cc3ccccc3)C1=C[C@H](C1CCCC1)O[C@@H]2C
0[16.7 µM] | C[C@@H]1CN([C@@H](C)CO)C(=O)c2cc(NC(=O)c3ccncc3)ccc2O[C@@H](C)CCCCO[C@H]1CN(C)Cc1ccncc1
-1[16.7 µM] | CO[C@H]1CC[C@@H]2CCN(C)C(=O)[C@H](C)N(C)C(=O)c3cccc(C#N)c3OC[C@H]1O2
15 | COc1ccccc1Cc1c(-c2ccc(C)cc2)nc2c3ccccc3ccn12
5[16.7 µM] | C[C@H](NC(=O)C[C@@H]1CC[C@H]2[C@@H](COc3ccc(NS(=O)(=O)c4ccc(Cl)cc4)cc3C(=O)N2C)O1)c1ccccc1
-15[16.7 µM] | C[C@H]1CN([C@@H](C)CO)C(=O)Cc2cc(NC(=O)Nc3ccc(F)cc3)ccc2O[C@H]1CN(C)Cc1ccc(C(F)(F)F)cc1
